# Tgondii IFNg: blocks Toxoplasma gondii growth in the presence of IFN-gamma; activity change, negative = inhibition, %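 (about 20 µM by stock and volumes)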; 3.8% of 69,000 active; Toxoplasma gondii growth in IFN-gamma-treated host cells; active compounds read low; reference of the scale not given here;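 active = below -70%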;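 also: host cells are HeLa cells infected with Toxoplasma gondii; parasite growth read as luciferase light; one replicate is shown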
# An asterisk follows results filed as active; i = inactive; & = joins results of further samples. An excerpt; the hit share may differ from the screen's.
no. | compound | Tgondii IFNg
1 | Cc1ccc(S(=O)(=O)N/N=C2/CSCC2NC(=O)c2ccccc2)cc1 (stereo not drawn) | 11
2 | CCn1ccnc1Cn1nc(C2CCNCC2)n(CC)c1=O | 1
3 | Cc1ccc(CC(=O)NCc2ccc(-c3[nH]ncc3C(=O)N(C)C)cc2)cc1 | 10
4 | O=C(NCCc1csc(-c2ccccc2)n1)[C@H]1CSCN1S(=O)(=O)c1ccccc1 | -27
5 | CN(C)c1cc(N(C)CC2CC(=O)N(C(C)(C)C)C2)ncn1 (stereo not drawn) | -1
6 | CCOc1ccc(N2C(=O)CNC2=S)cc1 | 27
7 | CN(Cc1cc2n(n1)CCCNC2)CC1COCCO1 (stereo not drawn) | -7
8 | Cc1cccc(Cl)c1NC(=O)N1CCCCC1CCN1CCOCC1 (stereo not drawn) | 7

# The last two records of the section before are carried over, then new ones follow:
no. | compound | Tgondii IFNg
7 | CN(Cc1cc2n(n1)CCCNC2)CC1COCCO1 (stereo not drawn) | -7
8 | Cc1cccc(Cl)c1NC(=O)N1CCCCC1CCN1CCOCC1 (stereo not drawn) | 7
9 | COCCN1CCc2c(CNC(=O)c3cnn(C)c3)cncc2C1 | -7
10 | CC(C)c1nc(C(=O)N2CCC3(CC2)c2ccccc2[C@@H](N)[C@@H]3O)cs1 | -7
11 | CN(CC1(CO)CCCC1)c1ccnc(C(=O)NCc2cccnc2)c1 | 39
12 | C[C@H](O)C#Cc1ccc([C@@H]2[C@@H](CO)N3CCCCN(CC4CC4)C[C@H]23)cc1 | 17
13 | COc1ccc(C(=O)NCCc2sc(-c3ccc(OC)cc3)nc2C)cc1 | i
14 | N#C[C@@H]1[C@@H](c2ccccc2)[C@@H](CO)N1C(=O)c1ccc2c(c1)OCO2 | 4
15 | CCCc1cc(-c2cc(=O)n3[nH]c(C)c(-c4ccc(OC)c(OC)c4)c3n2)no1 | -27
16 | COc1cc(F)c(F)c(Nc2ccc(I)cc2F)c1NS(=O)(=O)C1(C[C@H](O)CO)CC1 | 14
17 | C[C@H]1CN([C@@H](C)CO)C(=O)CCCn2nncc2CO[C@@H]1CN(C)C(=O)Nc1ccccc1C(F)(F)F | -96*
18 | CC(C)NC(=O)C1Cn2ccnc2C2(CCN(C(=O)c3ccc[nH]3)CC2)O1 (stereo not drawn) | 2
19 | Cn1cc(-c2ccncc2)c(C2CCCCN2C(=O)Cc2ccccc2)n1 (stereo not drawn) | 6
20 | Cc1ccc(CN2CCC3(CCC3NC(=O)c3ccn(C)c3)CC2)o1 (stereo not drawn) | -15
21 | CC(=O)NCCC1CN(Cc2cnn3c(C)cc(C)nc23)CCO1 (stereo not drawn) | 1
22 | COc1ccc(-c2nnc(-c3nc(NCc4ccc(F)cc4Cl)c4ccccc4n3)o2)cc1 | -47
23 | CN1CCN(c2ncc3c(=S)[nH]c(=S)[nH]c3n2)CC1 | 51
24 | Cc1ncsc1CCN(C)Cc1cnc(N)nc1 | 3
25 | Cc1ccccc1-c1ncc(CN2CCCC2Cn2cccn2)s1 (stereo not drawn) | 16
26 | O=C1CCC2(CCN(c3ncccn3)CC2)N1Cc1ccccc1 | -35
27 | CCc1nc(C)c(C(=O)N(C)Cc2snnc2C)o1 | -27
28 | NC(=O)C1Cn2ccnc2C2(CCN(C(=O)NC3CCCC3)CC2)O1 (stereo not drawn) | -6
29 | O=C(O)CCc1ccc(-c2cccs2)o1 | 1
30 | CCC1CN(CCCn2ccnc2C)CCC(=O)N1Cc1ccccc1 (stereo not drawn) | -3
31 | COCc1cn(CC[C@@H]2CC[C@H](NC(=O)Nc3c(C)noc3C)[C@H](CO)O2)nn1 | -40
32 | CCNc1ccnc(-c2cccc3[nH]ccc23)n1 | 36

# Some of the entries so far, field by field.
25) Cc1ccccc1-c1ncc(CN2CCCC2Cn2cccn2)s1 (stereo not drawn)
  Tgondii IFNg: 16

26) O=C1CCC2(CCN(c3ncccn3)CC2)N1Cc1ccccc1
  Tgondii IFNg: -35

27) CCc1nc(C)c(C(=O)N(C)Cc2snnc2C)o1
  Tgondii IFNg: -27

28) NC(=O)C1Cn2ccnc2C2(CCN(C(=O)NC3CCCC3)CC2)O1 (stereo not drawn)
  Tgondii IFNg: -6

# Other structures follow.
no. | compound | Tgondii IFNg
33 | CCCC(=O)Nc1ccc2c(c1)C(=O)N(C)C[C@H](OC)[C@@H](C)CN(Cc1ccc(F)cc1)[C@@H](C)CO2 | 78
34 | Cc1onc(-c2ccccc2)c1NC(=O)Nc1ccc(-n2ccc(C(F)(F)F)n2)cc1 | -13
35 | CN(Cc1cc2n(n1)CCNC2)CC1CCN(c2ccccc2)C1 (stereo not drawn) | 4
36 | Fc1cccc(OCc2ccc(Cl)cc2)c1OCc1ccc(Cl)cc1 | 33
37 | O=C(CN1C(=O)CCc2cc(S(=O)(=O)N3CCCC3)ccc21)NCc1ccc(F)cc1 | 18
38 | CSc1ccc(C2c3[nH]c4ccccc4c3CCN2C(=O)c2cccc(N(C)C)c2)cc1 (stereo not drawn) | 40
39 | Cc1ccc(S(=O)(=O)Oc2c(-c3ccccc3)c(=O)n(C)c3ccccc23)cc1 | 8
40 | CCOc1ccc(-c2cc3c(=O)n(Cc4nc(-c5ccc(Cl)cc5)oc4C)ccn3n2)cc1 | 32
41 | Cc1ccc(-c2nc(CSc3nc4c(=O)[nH]cnc4n3C)c(C)o2)cc1 | -5
42 | Cc1[nH]cnc1-c1nccn1CCC(=O)Nc1ccc(N(C)C)cc1 | 0
43 | Cn1cc(CN2C(=O)NC(Cc3ccc(F)cc3)(C3CCNCC3)C2=O)cn1 (stereo not drawn) | 6
44 | CC(=O)N1CCC2(CC1)CC(OCc1cccnc1)CO2 (stereo not drawn) | -3
45 | CN(C)C1CCCN(C(=O)c2cc3c([nH]c2=O)CCC3)CC1 (stereo not drawn) | 4
46 | Cc1cccc(CN2CCC3(CC2)N=C(c2cccc(C)c2)C(=O)N3)c1 | -71
47 | Cc1c(Cl)cccc1NC(=O)c1c(O)c2ccccc2n(-c2ccccc2)c1=O | 74
48 | Cc1ccc(S(=O)(=O)N2CCN(Cc3cc4n(n3)CCNC4)CC2)cc1 | -3
49 | CN1C(=O)c2cc(NC(=O)Nc3ccccc3Cl)ccc2OC[C@@H]2O[C@@H](CC(=O)O)CC[C@H]21 | 2
50 | O=C(Nc1ccccc1N1CCOCC1)c1nc2ccccc2s1 | 71
51 | CCN(C)S(=O)(=O)NCCC1CN(Cc2ccco2)CCO1 (stereo not drawn) | 6
52 | Cn1cncc1[C@@](N)(c1ccc(Cl)cc1)c1ccc2c(c1)c(-c1cccc(Cl)c1)cc(=O)n2C | -67
53 | COc1ccc(C2(CCN=Cc3ccc(N(C)C)cc3)CCOC(C)(C)C2)cc1 (stereo not drawn) | -1
54 | CC(C)COC1C2CCC1N(C(=O)c1ccccn1)C2 (stereo not drawn) | -66
55 | CCCc1nc(N2CCC(NS(C)(=O)=O)CC2)c2cnn(C)c2n1 | 1
56 | CN(CCCC1CCCO1)S(=O)(=O)NCc1ccccc1 (stereo not drawn) | 5
57 | CC(=O)Nc1nc(C)c(C(C)(C)C)s1 | -27
58 | COc1ccc(S(=O)(=O)Nc2ccc3c(c2)C(=O)N([C@H](C)CO)C[C@H](C)[C@H](CN(C)S(=O)(=O)c2ccc(Cl)cc2)OCCCC[C@@H](C)O3)cc1 | -38
59 | Cc1ccc(NC(=O)Cn2c(=O)cc(-c3nc(C(C)C)no3)c3ccccc32)c(Cl)c1 | -40
60 | Clc1ccc(C(Cn2ccnc2)OCc2csc3c(Cl)cccc23)c(Cl)c1 (stereo not drawn) | -79*
61 | Cc1ccc(C2(O)CCN(C(=O)C(C)Cn3cccn3)CC2)nc1 (stereo not drawn) | 5
62 | CCn1cc(S(=O)(=O)N2CC(c3cccnc3)C2)c(C)n1 | 4
63 | Cc1nc(CN(C)Cc2cc(C(C)(C)C)ccc2O)no1 | -17
64 | CN(C)c1cccc(C(=O)N2CCc3c([nH]c4ccccc34)C2c2ccc(F)cc2)c1 (stereo not drawn) | -94*
65 | CC(C)(C)c1cc(NC(=O)C2COc3ccccc3O2)n[nH]1 (stereo not drawn) | 56
66 | CC(C)CN1C(=O)CCc2cc(NC(=O)c3ccc4c(c3)OCO4)ccc21 | -77*
67 | CCn1cnc(NC(=O)N(C)Cc2ccc(OC)cc2)n1 | 4
68 | CCC(=O)N1C[C@H](C)[C@H](OC)CN(C)C(=O)c2cc(NC(=O)Nc3ccc(Cl)cc3)ccc2OC[C@H]1C | 167
69 | COc1ccc(Cc2nn3c(C(=O)c4cccs4)nn(-c4ccccc4)c3nc2=O)cc1 | -94*
70 | CCS(=O)(=O)N1CCC2(CC1)OC(=O)C(C)=C2C(=O)Nc1ccc(Cl)cc1 | -3
71 | CCCC(=O)N1CC2(C1)CN(S(=O)(=O)c1ccc(C)cc1)[C@H](CO)c1[nH]c3cc(OC)ccc3c12 | -53
72 | CC(C)NC(=O)[C@H]1C[C@@H]2CN(C(=O)NC3CCCC3)C[C@H]1O2 | -28
73 | Cc1ccc2c(c1)cc(CN(CCc1ccccc1)C(=O)c1cccs1)c1nnnn12 | -43
74 | CS(=O)(=O)N1CCCn2c(nc(CNC(=O)CC3CC3)cc2=O)C1 | -2
75 | O=S(=O)(c1ccc(Cl)s1)N1CCC2(CC1)NCCN=C2NC1CCCC1 | 6
76 | C/C=C/c1cnc2c(c1)C(=O)N([C@H](C)CO)C[C@H](C)[C@@H](CN(C)C(=O)Nc1cccc(OC)c1)O2 | 335
77 | CC(C)NC(=O)Nc1cccc2c1O[C@@H](CN(C)C(=O)Nc1ccccc1)[C@@H](C)CN([C@H](C)CO)C2=O | -5
78 | CN(C)C[C@H]1OC[C@H]2CCN(C(=O)N(C)C)C[C@H]21 | -39
79 | c1ccc(Nc2ccccn2)nc1 | 24
80 | COc1ccc(Nc2nc(-c3nnc(-c4ccc(C)cc4)o3)nc3ccccc23)cc1 | 105
81 | CC1=C(C(=O)NCCCc2ccccc2)C2(CCN(S(C)(=O)=O)CC2)OC1=O | 17
82 | C[C@@H]1CN([C@@H](C)CO)C(=O)Cc2cc(NC(=O)CCN3CCOCC3)ccc2O[C@H]1CN(C)Cc1ccc(C(=O)O)cc1 | -10
83 | COCCO[C@H]1CCN(Cc2csc(C)n2)[C@@H]1Cc1cccnc1 | 20
84 | CC1CCCCN1c1nc(-c2nnc(-c3ccccc3)o2)nc2ccccc12 (stereo not drawn) | 262
85 | CCCCN(CC)S(=O)(=O)c1ccc2[nH]c(=O)ccc2c1 | 73
86 | CSc1cccc(N(C(=O)c2ccc(C)cc2)C2(C(=O)NCc3ccccc3)CCN(C(C)=O)CC2)c1 | -22
87 | CCc1nncn1-c1ccccc1OCC(=O)Nc1cccc2ccc(C)nc12 | 10
88 | Cc1cc(Sc2ccccn2)nc(N)n1 | 37

# Following part:
no. | compound | Tgondii IFNg
89 | CCc1ccccc1OC1CN(Cc2ncc[nH]2)C1 | -1
90 | O=C(O)C1CC(N2CCOCC2)CCN1C(=O)c1ccccc1 (stereo not drawn) | 325
91 | Nc1c(C(=O)O)sc2nc(-c3ccccc3)cc(C(F)(F)F)c12 | 93
92 | COCC(=O)N1CC[C@@H](OCC2CC2)[C@@H]1Cc1cnn(C)c1 | -3
93 | CCCNC(=O)N[C@H]1C=C[C@H](CC(=O)N2CCN(C)CC2)O[C@H]1CO | 2
94 | O=C(CCC1N=C2c3ccccc3N=C(SCc3cccc(F)c3)N2C1=O)NCc1ccco1 (stereo not drawn) | 14
95 | COCCN1C(=O)CCc2cc(NC(=O)c3ccccc3C(F)(F)F)ccc21 | -21
96 | COc1ccc2ccccc2c1-c1nnc2ccc(C(F)(F)F)cn12 | 15
97 | COc1ccccc1NC(=O)N1C[C@H](O)COC[C@@H]2O[C@@H](CC(=O)NCCc3ccncc3)CC[C@H]21 | 5
98 | O=C(/C=C/c1ccccc1)c1ccc(O)cc1 | 2
99 | Cc1nonc1CC(=O)N1[C@@H]2CC[C@H]1CN(C)C(=O)C2 | 11
100 | CNC(=O)c1ccc(-c2nc(CN3CCN(C(=O)c4ccccc4F)CC3)c(C)o2)cc1 | 39
101 | CCOC(=O)C1(CCc2ccccc2)CCN(C(=O)CCn2cnc3ccccc32)CC1 | -7
102 | COC(=O)[C@H](NC(=O)c1cc(-c2ccccc2)nc2ccccc12)c1ccccc1 | 26&12
103 | Cc1ccc(CC(=O)Nc2ccc(-c3nc(-c4ccccc4)co3)cc2)cc1 | -9
104 | CC(C)c1nccn1C(C)C(=O)NCc1ccc2c(c1)OCO2 (stereo not drawn) | 2
105 | CC1=C(C(=O)N2CCN(c3ccccc3)CC2)C2(CCN(S(C)(=O)=O)CC2)OC1=O | 9
106 | O=C(c1cccc(F)c1)N1CCCCN2[C@H](CO)[C@@H](c3ccc(C#CC4(O)CCCC4)cc3)[C@H]2C1 | -5
107 | COCC1c2c(cnn2CC2CC2)CCN1C(=O)c1cccn1C (stereo not drawn) | 2
108 | Cc1ccc(C)c(-c2[nH]ncc2CN2CCN3C(=O)CN(C)C(=O)C3C2)c1 (stereo not drawn) | -1
109 | Cc1ccc(C)c(C(NC(=O)Cc2c(C)nc3nc[nH]n3c2=O)c2ccncc2)c1 (stereo not drawn) | 15
110 | COc1ccc2c3c([nH]c2c1)[C@H](CO)N(CC1CC1)CC31CN(C(=O)NC2CCCC2)C1 | 358
111 | CS(=O)(=O)N1C[C@@H]2COC[C@@]2(COc2cccnc2)C1 | 7
112 | CN1CCc2cc(Cl)c(O)cc2[C@@H](c2ccccc2)C1 | 12&23
113 | CC(C)N1c2ccccc2C(c2ccc(F)cc2)C1/C=C/C(O)CC(O)CC(=O)O (stereo not drawn) | -62
114 | COc1c(Br)cc(-c2noc(CSC)n2)cc1Br | 9
115 | CC(=O)OCC(=O)[C@@]12OC3(CCCC3)O[C@@H]1C[C@H]1[C@@H]3CCC4=CC(=O)C=C[C@]4(C)[C@@]3(F)[C@@H](O)C[C@@]12C | 22
116 | CC(=O)N1CCC(N(C)CCCc2cnn(C)c2)CC1 | 9
117 | CCCCOc1ccc(-c2cc3c(=O)n(Cc4nc(-c5ccc(OC)cc5)oc4C)ccn3n2)cc1 | 74
118 | COc1ccc(N(Cc2nc(-c3ccccc3)oc2C)S(=O)(=O)c2ccc(OC)cc2)cc1 | -50
119 | COCC(=O)N(C)C[C@H]1[C@H](c2ccccc2)[C@H](CO)N1C(=O)Cc1ccncc1 | 10
120 | Cn1c(=O)cc(C(=O)Nc2nnc(C(c3ccccc3)c3ccccc3)s2)[nH]c1=O | -7
121 | CCCOc1ccc(C(=O)N2CCC3(CC2)CNC(=O)C3)cc1Cl | -10
